MARV entry inh – qHTS for inhibitors of binding or entry into cells for Marburg Virus; Marburg virus pseudotyped entry inhibition, cell reporter; control for the full effect not named in the record; about a third of the inactives were read at about 46 µM; Potency, µM (series often up to 37.8 µM), for inactives: at the top dose activity change, negative = inhibition, most hits filed as inhibitors; actives 1.8% (n = 300,000); AID 540276, 2011; active = well fitted inhibition curve with a large enough effect; inconclusive = small, poorly fitted or top-dose-only effect, or effect the other way; inactive = flat fitted curve, though single readings scatter; tested in HEK293 cells; about a fifth of its hits are not listed in these tables; note: % is set by controls: 0 for no effect and ±100 for the full control effect; luciferase read-out
RE007 growth inh – qHTS Assay for Inhibitors of the HIV-1 protein Vpr. actives 0.21% (n = 360,000). Potency, µM (doses to about 92.2 µM), inactives show at the top dose activity change, negative = less growth. S. pombe RE007 Vpr strain, BacTiter-Glo ATP luminescence, 24 h; control for the full effect not named in the record. AID 651644, 2012; active = well fitted falling curve with a large enough effect; inconclusive = small, poorly fitted or top-dose-only effect; inactive = no such curve, though single readings can be large or run the other way;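 note: % is set by controls: 0 for no effect and ±100 for the full control effect; nearly all actives have a fitted effect of over 50% in size; the assay follows cell death caused by Vpr and the record does not say whether a fall means rescue or toxicity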
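Fission yeast RE007 carrying one integrated HIV-1 vpr copy, seeded at OD 0.01 in PMG+AL medium with 23 nL pinned compound. Grown 24 h at 30 degrees; viability read by BacTiter-Glo luminescence after 5 min.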
SARS PLpro yeast – qHTS of Yeast-based Assay for SARS-CoV PLP. S. cerevisiae expressing SARS-CoV PLpro, growth rescue; control for the full effect not named in the record. Potency, µM (highest dose often 32.9 µM), for the others: at the highest dose activity, positive = growth rescue. actives 0.19% (n = 330,000). AID 485353, 2010; note: 0% is about no effect; nearly all actives have a fitted effect of over 55% in size; growth read by luminescence after 48 h
2A StopGo – High Throughput Screening for Foot and Mouth Disease Virus Antivirals; actives 1.2% (n = 410,000); Potency, µM (top dose mostly 57.9 µM), for the others: top-dose signal change, negative = less light; human cells with a luciferase reporter of 2A StopGo recoding; control for the full effect not named in the record; active = well fitted falling curve with a large enough effect; inconclusive = small, poorly fitted or top-dose-only effect; inactive = no such curve, though single readings can be large or run the other way; tested in HEK293T cells; note: % is set by controls: 0 for no effect and ±100 for the full control effect; nearly all actives have a fitted effect of over 45% in size; luciferase light after 4 h
Lassa entry inh – qHTS for Inhibitors of binding or entry into cells for Lassa Virus | actives 1.2% (n = 300,000) | Potency, µM (top dose mostly 37.9 µM), inactives show top-dose activity change, negative = inhibition, most hits filed as inhibitors | Lassa virus pseudotype entry inhibition, cell reporter; control for the full effect not named in the record; active means well fitted inhibition curve with a large enough effect; inconclusive means small, poorly fitted or top-dose-only effect, or effect the other way; inactive means flat fitted curve, though single readings scatter; tested in HEK293 cells; note: % is set by controls: 0 for no effect and ±100 for the full control effect; nearly all actives have a fitted effect of over 50% in size; luciferase read-out
Cruzain Triton – qHTS Assay for Promiscuous and Specific Inhibitors of Cruzain (with detergent). purified cruzain, Z-FR-AMC fluorescence, 0.01% Triton. actives 0.43% (n = 200,000). AID 1478, 2009. Potency, µM, for the others: max response, negative = inhibition, hits mostly inhibitors; active = well fitted curve in the direction sought with a large enough effect; inconclusive = small, poorly fitted or top-dose-only effect, or another doubt; inactive = no such curve, though single readings can be large; an effect the other way counts as inactive or inconclusive;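 note: plate controls were neutral wells for no effect and buffer without enzyme for full effect; nearly all actives have a fitted effect of over 40% in size; top concentration of the series not given in the record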
Target sequence (P25779 123-467 limits assumed): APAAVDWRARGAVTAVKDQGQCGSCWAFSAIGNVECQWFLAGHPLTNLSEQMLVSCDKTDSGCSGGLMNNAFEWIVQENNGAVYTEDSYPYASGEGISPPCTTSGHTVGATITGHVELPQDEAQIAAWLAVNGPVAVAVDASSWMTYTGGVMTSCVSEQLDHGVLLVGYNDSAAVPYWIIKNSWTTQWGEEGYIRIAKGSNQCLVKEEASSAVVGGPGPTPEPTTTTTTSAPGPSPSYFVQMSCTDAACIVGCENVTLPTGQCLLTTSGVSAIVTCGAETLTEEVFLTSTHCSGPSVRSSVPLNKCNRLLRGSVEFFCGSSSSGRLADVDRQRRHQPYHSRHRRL
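Z-FR-AMC hydrolysis (2 uM substrate) by cruzain (1.5 nM) monitored kinetically at ex 360/em 450 nm after 15 min room-temperature compound exposure; 0.01% Triton X-100, pH 5.5, 5 mM DTT.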
NS1 inh – qHTS Assay for Inhibitors of Influenza NS1 Protein Function | S. cerevisiae slowed by influenza A NS1, growth recovery by OD600 | Potency, µM (series often up to 46.1 µM), for inactives: top-dose activity, positive = more growth | actives 0.4% (n = 270,000) | AID 2326, 2010; note: actives are rising curves; nearly all actives have a fitted effect of over 50% in size
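Recovery from NS1-induced slow growth read by OD600 in budding yeast switched to galactose assay medium (pH 6.0, -URA) at 1:100 dilution. Compound 23 nl per well; the matching strain lacking NS1 serves as control.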
Cruzain inh noDet – qHTS Assay for Promiscuous and Specific Inhibitors of Cruzain (without detergent); Cruzipain (Trypanosoma cruzi), P25779; purified cruzain, Z-FR-AMC fluorescence, no detergent; Potency, µM, without a hit: max response, negative = inhibition, usual class: inhibitors; actives 2.3% (n = 200,000); AID 1476, 2009; active = well fitted curve in the direction sought with a large enough effect; inconclusive = small, poorly fitted or top-dose-only effect, or another doubt; inactive = no such curve, though single readings can be large; an effect the other way counts as inactive or inconclusive;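 note: plate controls were enzyme without inhibitor for no effect and buffer without enzyme for full effect; nearly all actives have a fitted effect of over 40% in size; top concentration of the series not given in the record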
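Detergent-free condition (0.00005% Triton X-100) in acetate buffer pH 5.5 with DTT. 1.5 nM enzyme and compound were pre-mixed 15 min, then 2 uM Z-FR-AMC substrate added; reaction progress from fluorescence change between first and third reads (60 s).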
* marks the source's active call; other numbers are inactive results; ? = inconclusive; . = not tested or not shown; & = joins results of further samples; [ ] = another dose, or the depositor's remark. Unless noted, calls come from the whole dose curve; as a rule, active means well fitted rising curve with a large enough effect; inconclusive means small, poorly fitted or top-dose-only effect; inactive means no such curve, though single readings can be large or run the other way. Potency is the fitted concentration of half-maximal effect.

SMILES	MARV entry inh	RE007 growth inh	SARS PLpro yeast	2A StopGo	Lassa entry inh	Cruzain Triton	NS1 inh	Cruzain inh noDet
CCNC(=O)CSc1nc2sccc2c(=O)n1-c1ccccc1	.	0%	1%	-19%	.	.	9%	.
CCOc1ccc(N(CC(=O)Nc2c(C)cccc2C)S(=O)(=O)c2c(C)[nH]c(=O)[nH]c2=O)cc1	5%[46.1 µM]	14%	1%	-18%	-2%	.	-2%	.
CC1CN(c2ncnc3c2cnn3-c2ccc(Cl)cc2)CC(C)O1 (stereo not drawn)	.	2%	-1%	19%	.	-1.8%	-18%	?
COc1c(Cl)cc(C(=O)N(Cc2ccc(C)o2)C2CCS(=O)(=O)C2)cc1Cl (stereo not drawn)	-6%[46.1 µM]	.	.	-14%	6%[46.1 µM]	-5.8%	.	-20%
Clc1cccc(CSc2nccn2-c2ccccc2)c1	-6%	18%	0%	-5%	4%	-1.3%	-45%	-1%
CN1CCN(C(=O)C23CCC(C)(c4nc5ccccc5nc42)C3(C)C)CC1 (stereo not drawn)	6%	1%[3.69 µM]	-1%	8%	8%	4.3%	0%	-4%
COc1ccc(C)cc1Nc1nc2c(S(=O)(=O)c3cc(C)ccc3C)nnn2c2ccsc12	.	.	.	3%	23%[46.1 µM]	-0.8%	.	2%
Cc1c(C(=O)N(C)CCc2cnn(C)c2)oc2c(F)cccc12	.	-7%	-1%	-10%	.	.	2%	.
CO/N=C/C(C#N)c1ncc(C(F)(F)F)cc1Cl (stereo not drawn)	-12%	6%	-1%	-22%	-11%	0.6%	-16%	4%
O=C(Nc1ccccc1F)C1CCN(S(=O)(=O)c2cccc3nonc23)CC1	4%[46.1 µM]	9%	2%	-2%	-16%[46.1 µM]	.	27%	.
Cc1ccccc1-n1ncc2c1CC(C)(C)CC2NC(=O)c1snnc1C (stereo not drawn)	.	0%	-13%	-20%	.	.	?	.
COC(=O)c1ccc(NC(=O)C2CCCN2C(=O)Nc2cccc(C(C)=O)c2)cc1 (stereo not drawn)	2%[46.1 µM]	-3%	1%	17%	10%	.	15%	.

Compounds above containing an aryl thioether with sulfur outside any ring (two):
SMILES	MARV entry inh	RE007 growth inh	SARS PLpro yeast	2A StopGo	Lassa entry inh	Cruzain Triton	NS1 inh	Cruzain inh noDet
CCNC(=O)CSc1nc2sccc2c(=O)n1-c1ccccc1	.	0%	1%	-19%	.	.	9%	.
Clc1cccc(CSc2nccn2-c2ccccc2)c1	-6%	18%	0%	-5%	4%	-1.3%	-45%	-1%

Following part:
SMILES	MARV entry inh	RE007 growth inh	SARS PLpro yeast	2A StopGo	Lassa entry inh	Cruzain Triton	NS1 inh	Cruzain inh noDet
Cc1cccc(C)c1OCC(=O)N=Nc1c(O)[nH]c2ccc(Br)cc12	?	7%	-11%	?	-5%	1.6%	4%	-23%
CCOC(=O)N1CCN(c2cc3[nH]c(=S)[nH]c3cc2F)CC1	12%	-8%	-1%	-9%	13%	-0.9%	19%	-4%
N#Cc1c(N)nc2c(c1N)CC(COc1ccccc1)O2 (stereo not drawn)	?	2%	-1%	19%	6%	-5.0%	1%	0%
Cc1ccc(S(=O)(=O)NCC2(c3ccccc3)CCN(C)CC2)cc1	.	2%	2%	-7%	.	.	7%	.
O=C(COc1cccc(C(F)(F)F)c1)N1CCN(c2ccc(O)cc2)CC1	?	1%	-2%	-3%	?	.	.	.
CCOc1ccc(S(=O)(=O)N2CCOCC2)cc1NC(=O)CSCC(=O)Nc1cccc(C)c1	-15%	2%	9%	34%[activator]	5%	.	-2%	.
CN(NC(=O)c1ccccc1)c1nc2ccccc2nc1C(F)(F)F	-12%	19%	-2%	-14%	-25%	1.9%	8%	-6%
CCOC(=O)N1CCC(N2C(=O)c3ccccc3C2Nc2ccc(Cl)cn2)CC1 (stereo not drawn)	.	12%	-10%	?	.	-0.3%	-33%	?
O=C(COC(=O)C1(c2ccccc2F)CCCC1)N1CCN(C(=O)c2ccco2)CC1	-4%&20%	-9%	0%	.	-28%	-3.2%	-7%	25%
Cc1cc(C)n(C(=O)c2ccc([N+](=O)[O-])cc2[N+](=O)[O-])n1	?	11%	-32%	-7%	8%	-2.5%	1%	-6%
COC(=O)c1ccccc1NC(=O)c1nc2nc(C)cc(C(F)F)n2n1	10%	-9%	3%	-13%	-1%	-0.4%	-3%	1%
Cc1cccc(Cn2cccc(C(=O)Nc3nnc(C)s3)c2=O)c1	.	.	.	-10%	11%[46.1 µM]	-0.4%	.	-13%
Cc1ccccc1NS(=O)(=O)c1ccc(OCC(=O)NCc2cccnc2)cc1	2%	14%	20%	12%	-5%	4.6%	-8%	-3%
CCOC(=O)C1=C(C)N(c2ccccc2)C(=O)NC1c1cccc([N+](=O)[O-])c1 (stereo not drawn)	-10%	4%	10%	-18%	5%	-5.0%	-16%	5%
O=C(NCC(c1cccs1)N1CCOCC1)C1CCN(S(=O)(=O)c2c(Cl)cccc2Cl)CC1 (stereo not drawn)	-11%	2%	-6%	-6%	-15%	.	.	.
Cc1ccc(N(CC(C)C)S(=O)(=O)c2nnc(NC(=O)c3ccco3)s2)cc1	.	.	.	-19%	8%[46.1 µM]	-0.7%	.	15%
CC(C)(CN1CCCC1)NC(=O)C1CCC(=O)N(CCCN2CCOCC2)C1 (stereo not drawn)	.	13%	0%	-4%	.	.	1%	.
COc1ccc(NC(=O)C2CCCN2S(=O)(=O)c2ccc(C)cc2)cc1 (stereo not drawn)	5%	2%	-2%	-1%	17%	2.1%	-11%	-7%
Cc1ccc(C(=O)NCC(=O)OCC(=O)c2cc(C)n(Cc3ccco3)c2C)cc1	19%	5%	-1%	21%	-10%	-30%	9%	-1%
Cc1ccc(N(C(C)C(=O)N2CCOCC2)S(C)(=O)=O)cc1C (stereo not drawn)	-9%[46.1 µM]	13%	-1%	-9%	21%[46.1 µM]	.	3%	.
Cn1cc(C(=O)C(=O)N2CCCCC2)c2ccccc21	-13%[46.1 µM]	-4%	.	-6%	-2%	.	.	.
CCCOC(=O)CCc1n[nH]c(=O)[nH]c1=O	-16%	1%	-2%	5%	2%	3.7%	3%	-7%
Cc1noc(C)c1COC(=O)COc1ccc2c(C)cc(=O)oc2c1	-14%	-4%	0%	-8%	0%	-0.7%	-4%	-4%
COc1ccc2c(c1)CCCC21SC(NC(C)=O)=NN1C(C)=O (stereo not drawn)	-1%[46.1 µM]	11%	2%	-1%	21%	.	.	.
Cc1c(NC(=O)CSc2nc3c(cnn3-c3ccccc3)c(=O)[nH]2)c(=O)n(-c2ccccc2)n1C	?	-9%	14%	-28%	8%&6%	-1.9%	5%	1%
Cc1ccc(NC(=O)CCc2nc3cccnc3n2-c2ccccc2)cc1	1%[46.1 µM]	.	.	-5%	3%[46.1 µM]	-1.5%	.	-5%
Cc1ccc(CNC(=O)CO/N=C/c2ccc(C(C)(C)C)cc2)cc1	?	-21%	19%	?	?	-7.1%	23%	1%
Cc1c(C(=O)O)oc2ccc(S(=O)(=O)NCc3ccc(F)cc3)cc12	13%	4%	0%	19%	12%	2.2%	-3%	-1%
Cc1ncc(N=Nc2ccccc2Cl)c(-c2ccccc2)n1	-2%[46.1 µM]	-20%	-4%	?	1%	-5.1%	-11%	-13%
O=C(COc1cc(F)ccc1[N+](=O)[O-])Nc1ccc(N2CCOCC2)cc1	3%[46.1 µM]	-18%	3%	-6%	-22%	.	.	.
Cn1cc(S(=O)(=O)N2CCCC2)cc1C(=O)Nc1ccc(F)cc1F	.	.	.	18%	1%[46.1 µM]	0.1%	.	-8%
CCn1c(SCC(=O)N2CCN(C)CC2)nc2c1c(=O)n(C)c(=O)n2C	1%[46.1 µM]	-9%	0%	22%	10%[46.1 µM]	.	1%	.
COc1cccc(C(O)Cc2nc3ccccc3n2C)c1OC (stereo not drawn)	20%[46.1 µM]	0%	1%	23%	1%	.	0%	.
CCC(C(=O)Nc1cc(Cl)c(OC)cc1OC)c1ccccc1 (stereo not drawn)	?	5%	-1%	-22%	?	.	3%	.
CCOC(=O)C(C)n1cnc2c(oc3ccccc32)c1=O (stereo not drawn)	-10%	18%	3%	27%	4%	4.1%	?	5%
CCOC(=O)c1c(NC(=O)CN2C(=O)NC(C)(c3ccc(OC(F)F)cc3)C2=O)sc(C)c1C (stereo not drawn)	?	2%	-1%	?	?	-4.7%	?	-14%
O=C(Nc1ccc(Oc2cccnc2)cc1)C1CCN(Cc2cccc(Cl)c2)CC1	.	4%	2%	-12%	.	.	19%	.
O=C(Cc1c(F)cccc1Cl)N1CCN(S(=O)(=O)c2cccc(F)c2)CC1	0%	2%	0%	-23%	?	.	.	.
N#CC1=C(N)Oc2n[nH]c(-c3ccc(F)cc3)c2C1c1cccc(OC(=O)N2CCOCC2)c1 (stereo not drawn)	3%	16%	3%	-3%	11%	-9.7%	-39%	20%
COc1ccccc1CNC(=O)c1ccc(CS(=O)(=O)c2ccccc2OC)o1	3%	-14%	-3%	-10%	19%	-1.4%	-6%	5%
COc1ccc(Cn2c(-c3ccc(C)cc3)c[n+]3ccccc23)cc1	?	-25%	-18%	?	6.3µM*	-4.4%	-4%	-7%
Cc1cc2oc(=O)cc(CN3CCN(C/C=C/c4ccccc4)CC3)c2cc1O	1%	.	-2%	.	.	-0.8%	-44%	-21%
Cc1ccc(/C=C/C(=O)N2CCN(S(=O)(=O)c3c(C)c(C)cc(C)c3C)CC2)o1	1%	11%	-59%	-14%	?	-10%	18%	-3%
Cc1c(Br)c([N+](=O)[O-])nn1CC(=O)N1CCCc2ccccc21	2%	-14%	2%	-14%	0%	-4.8%	0%	-20%
O=P(O)(CCCP(=O)(O)CCc1ccccc1)CCc1ccccc1	11%	1%	-8%	-1%	8%	-1.4%	-1%	-3%
